Vif TR-FRET = inhibitors of Vif binding to APOBEC3G peptide, primary screen, biochemical, TR-FRET, GST-Vif 1-94, biotin-A3G peptide, dose response retest (AID 1117319); inhibition, %; hits with a dose series show IC50 in µM; TR-FRET GST-Vif / biotin-A3G peptide binding; higher % means a stronger effect; test concentration not given here; strong numbers were not always called active; actives 0.57% (n = 260,000);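 active = above the screen mean plus three standard deviations and confirmed in dose response; inconclusive = results disagree or hit not tested in dose response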;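 note: Vif residues 1-94 fused to GST binding biotinylated APOBEC3G peptide 110-148; 0% = full assay without inhibitor and 100% = GST in place of GST-Vif; retest series ran down from 100 µM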
AF4-AF9 inh = MLL-AF4/AF9 protein interaction inhibition; actives 0.47% (n = 350,000); P42568; AlphaScreen, biotin-AF4 peptide binding to FLAG-AF9; AID 651704; inhibition, % at 10 µM;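 active = every replicate reaching a set inhibition limit, whatever the replicate mean, cut at about 25% in these data; inconclusive = mean inhibition reaches that limit but some replicates miss it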;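 note: 0% = plate neutral control median and 100% = total signal loss; the record names both 10 and 1 µM as test concentration; the first replicate is given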
Target sequence (P42568 whole entry, looked up): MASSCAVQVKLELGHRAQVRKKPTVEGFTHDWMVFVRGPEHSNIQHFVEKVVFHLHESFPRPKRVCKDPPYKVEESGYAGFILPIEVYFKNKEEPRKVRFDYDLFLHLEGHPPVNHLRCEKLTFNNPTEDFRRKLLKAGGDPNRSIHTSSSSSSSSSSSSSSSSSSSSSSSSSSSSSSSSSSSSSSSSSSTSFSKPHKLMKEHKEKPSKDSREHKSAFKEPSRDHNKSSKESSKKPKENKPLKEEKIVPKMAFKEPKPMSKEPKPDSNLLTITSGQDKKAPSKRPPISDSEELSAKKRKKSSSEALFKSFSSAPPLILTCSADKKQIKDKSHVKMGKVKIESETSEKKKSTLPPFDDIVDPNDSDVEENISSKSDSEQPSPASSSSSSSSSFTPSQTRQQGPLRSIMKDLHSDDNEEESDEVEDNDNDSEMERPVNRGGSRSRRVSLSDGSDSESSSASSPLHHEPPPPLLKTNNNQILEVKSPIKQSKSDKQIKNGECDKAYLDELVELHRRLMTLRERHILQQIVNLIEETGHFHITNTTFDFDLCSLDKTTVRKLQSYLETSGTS
Ecoli rRNA inh = inhibits bacterial ribosomal RNA function over humanized ribosomes; AID 720706; GFP signal change (wild-type ribosome), % (test concentration not listed); E. coli WT GFP vs humanized-ribosome RFP mutants, fluorescence, 24 h; active compounds read low; DMSO median 0, no signal -100; actives 1.6% (n = 350,000);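 active = significant combined selectivity score with lowered wild-type GFP, culture density cut under 30%, mutant RFP and density less affected; inactive = any of these conditions unmet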; note: one replicate is shown; some compounds called inactive have numbers as strong as hits
Ecoli rRNA inh OD600 = further read-out of Ecoli rRNA inh, marked with its call; OD600 change, %; measured here: OD600 growth;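 optical density of the mix in the first replicate; 0 = DMSO median and -100 = no signal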
Ecoli rRNA inh RFP = also measured in Ecoli rRNA inh; calls as there; RFP signal change, %; measured here: RFP humanized mutant strains;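 first replicate; 0 = DMSO median and -100 = no signal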
An asterisk follows results filed as active; u = inconclusive; & = joins results of further samples. This is a subset (hit frequency here may not be typical).

A first look (4 entries):
no.	canonical_smiles	Vif TR-FRET	AF4-AF9 inh	Ecoli rRNA inh	Ecoli rRNA inh OD600	Ecoli rRNA inh RFP
1	O=C(C[C@@H]1C[C@H]2c3cc(NC(=O)C4CCC4)ccc3O[C@H]2[C@@H](CO)O1)NCc1ccc(-c2ccccc2)cc1	4%	-2.0	6&0	-10&-4	20&2.1
2	COc1ccccc1C=NN=Cc1ccccc1OC	-1%	20	7	15	1.0
3	O=C1CC(c2ccccc2)NC(=S)N1 (configuration not stated)	0%	-1.0	7	7	-3.4
4	CCN1/C(=C/c2ccc3cc(C)ccc3[n+]2CC)Sc2cc(C)c(C)cc21	-58%	18	50	-73	51

Main list, previewed entries included:
no.	canonical_smiles	Vif TR-FRET	AF4-AF9 inh	Ecoli rRNA inh	Ecoli rRNA inh OD600	Ecoli rRNA inh RFP
1	O=C(C[C@@H]1C[C@H]2c3cc(NC(=O)C4CCC4)ccc3O[C@H]2[C@@H](CO)O1)NCc1ccc(-c2ccccc2)cc1	4%	-2.0	6&0	-10&-4	20&2.1
2	COc1ccccc1C=NN=Cc1ccccc1OC	-1%	20	7	15	1.0
3	O=C1CC(c2ccccc2)NC(=S)N1 (configuration not stated)	0%	-1.0	7	7	-3.4
4	CCN1/C(=C/c2ccc3cc(C)ccc3[n+]2CC)Sc2cc(C)c(C)cc21	-58%	18	50	-73	51
5	Cc1ccc(OCC(=O)c2cc(C)n(-c3cc(C)on3)c2C)c([N+](=O)[O-])n1	6%	1.2	-24	-21	-4.4
6	O=S(=O)(c1ccc(F)cc1F)N1CCN(CCO)CC1	-10%	-1.5	12	13	-1.4
7	O=C(Nc1cccc(-c2cccc(Cl)c2)c1)C1CCN(Cc2nccs2)CC1	-1%	4.4	-36	-40	-3.1
8	O=C1NC(=O)C2(CCCc3ccc([N+](=O)[O-])cc32)N1 (configuration not stated)	4%	-1.6	2	5	-0.1
9	COc1ccccc1CNS(=O)(=O)CCNCCc1ccccc1	-5%	-2.1	4	6	-1.3
10	COC(=O)C1=C(C)NC(=O)NC1c1ccc(OC)c(OC)c1 (configuration not stated)	-1%	-2.7	11	3	-1.1
11	CC1C(=O)N(Cc2cn(Cc3ccco3)nn2)CCS(=O)(=O)N1Cc1ccc(-c2ccccc2)cc1 (configuration not stated)	-6%	-1.6	-9	-27	0.5
12	O=C1C(N2CCOCC2)=Cc2cccc3cccc1c23	-5%	2.2	56	-5	58
13	Cn1c(CCN2CCCC2)nc2cc(NS(=O)(=O)c3ccc(F)cc3)ccc21	2%	-2.4	0	-4	-5.8
14	CCn1c(SCC(=O)Nc2ccc(OC)c(S(=O)(=O)N3CCCCC3)c2)nnc1C1CC1	-15%	-1.1	-4	-5	-1.2
15	COc1ccc(CN(C)C(=O)c2ccc(OCC(=O)Nc3cccc(C(F)(F)F)c3)c(OC)c2)cc1	3%	-2.8	-2	-13	15
16	O=C(CCNC(=O)C1CCN(S(=O)(=O)c2ccccc2)CC1)NCc1cccnc1	14%	0.9	5	9	2.6
17	Nc1nc(COC(=O)c2ccco2)nc(Nc2ccccc2)n1	-10%	-5.5	14	23	0.7
18	CCN(CC)c1nc(C=Cc2ccc(N(C)C)cc2)c2nccnc2n1	-4%	-18	64	14	55
19	Cc1ccc(C(=O)NNC(=O)c2ccc3ccccc3c2)cc1	1%	1.0	-5	-11	-2.4
20	CC(NC(=O)CN1CCN(CC(=O)Nc2ccccc2Cl)CC1)c1ccc(Br)cc1 (configuration not stated)	-7%	2.0	-61	-76	-18
21	NCCC(=O)NC[C@H]1O[C@@H](n2cnc3c(N)ncnc32)[C@H](O)[C@@H]1O	-4%	-0.1	1	2	-3.2
22	Clc1cccc(CSc2ncnc3c2ncn3C2CCCCO2)c1 (configuration not stated)	-2%	-0.8	-35	-58	-1.7
23	O=S(=O)(CCN1CCN(c2ccccc2O)CC1)c1ccc(Cl)cc1	3%	1.6	-8	-7	6.9
24	O=S(=O)(c1ccccc1Br)N(Cc1ccccc1)CC(O)COCc1ccccc1 (configuration not stated)	-1%	1.3	-37	-61	-5.7
25	CC1(C2CC2)NC(=O)N(CC(=O)N2CCN(c3ccccc3Cl)CC2)C1=O (configuration not stated)	-2%	-0.6	-3	-4	-1.6
26	Nc1cccc2cccc([N+](=O)[O-])c12	6%	3.1	-6	0	24
27	CCSC1=C(C#N)C(c2ccc(F)cc2)CC(=O)N1 (configuration not stated)	4%	-0.9	-4	-5	0.1
28	CCN([C@H](CO)C(C)C)S(=O)(=O)c1ccccc1Br	4%	-5.7	0	-2	-0.2
29	CCCCn1cnc2c(SCc3ccccc3F)nc(N)nc21	-5%	-3.3	-51	-66	-14
30	O=C1OC(Cc2ccccc2)C(c2ccccc2)C1=O (configuration not stated)	-1%	0.4	-3	-29	-1.3
31	COC1OC(CO)C(N=C(C)C)C1O (configuration not stated)	3%	-6.8	2	8	2.7
32	O=C(c1cccs1)N1C[C@@H](n2cc(C3CC3)nn2)[C@H](O)C[C@@H]1c1ccccc1	-5%	-0.2	0	6	0.4
33	C[C@@H]1CN([C@H](C)CO)C(=O)CCCn2nncc2CO[C@H]1CN(C)C(=O)c1ccc2ccn(C)c2c1	4%	0.8&0.3	4&5	1&3	3.9&2.3
34	CCN(CC)C(=O)C1=C(C)N(Cc2ccc(OC)cc2)C(=O)C(CC(=O)NC(c2ccccc2)c2ccccc2)C1 (configuration not stated)	-4%	0.1	-12	-11	3.2
35	CN(C)CCC1(c2ccccc2)CCN(C)C1=O (configuration not stated)	-5%	1.9	22	13	4.2
36	CCOC(=O)C1=CNS(=O)(=O)NC1c1ccc2ccccc2c1 (configuration not stated)	-3%	-1.5	-3	-5	-3.5
37	C[C@@H]1CN([C@@H](C)CO)C(=O)c2cc(N(C)C)ccc2O[C@@H](C)CCCCO[C@@H]1CN(C)S(=O)(=O)c1cccs1	7%	7.2&4.0&8.7	-3&-3	10&-7	2.5&-1.1
38	Cc1noc(C)c1COC(=O)c1csc2c1CCCC2	2%	0.1	-43	-59	1.0
39	CCOC(=O)/C=C1/SCC(=O)N1CC(=O)NC12CC3CC(CC(C3)C1)C2	-4%	1.5	-3	-40	-2.1
40	COc1ccc(/C=N/NC(=O)c2ccc(-n3cnnn3)cc2)cc1	-7%	1.0	-12	-9	-1.0
41	Oc1ccccc1C=NN=C1c2ccccc2-c2ccccc21	-5%	0.9	-2	5	-6.1
42	O=C(CN1CCCCC1)Nc1ccccc1C(=O)NC1CC1	1%	-15	5	5	1.3
43	COc1cccc(CN(C)CCCn2cnc3c(OC)ncnc32)c1	-4%	0.6	-2	6	-1.2
44	O=C(COC(=O)/C=C/c1ccccc1Cl)NC(=O)NC1CCCC1	1%	-0.1	-27	-26	-2.6
45	CC1(C)Cc2c(cnn2-c2ccc(F)cc2)C(NC(=O)C2=CC(=O)CC(C)(C)O2)C1 (configuration not stated)	-5%	3.7	0	-8	-2.1
46	Cc1cccc(-n2ccnc2SCC(=O)Nc2cccc(S(=O)(=O)NC3=NCCC3)c2)c1C	2%	1.9	-5	-5	1.2
47	Cc1nnc(SCC(=O)NC2CCCCC2)n1N	-10%	-0.9	13	14	2.1
48	O=C(COC(=O)c1ccc(O)cc1O)NC(=O)c1ccccc1	2%	0.2	16	9	2.0
49	Cc1nc(C)c(C(=O)OCC(=O)Nc2ccc(C)c(C)c2)s1	59%	0.6	6	-1	3.8
50	CC1(C)Oc2cc3oc(C(=O)O)cc(=O)c3cc2-c2ccccc21	4%	-4.1	-6	-1	2.1

The list goes on:
no.	canonical_smiles	Vif TR-FRET	AF4-AF9 inh	Ecoli rRNA inh	Ecoli rRNA inh OD600	Ecoli rRNA inh RFP
51	COc1cc(C(=O)N2CCN(C(=O)C3CCCO3)CC2)cc(OC)c1OC (configuration not stated)	-10%	-2.3	10	14	0.4
52	CCOC(=O)C1CCCN(C(=O)C(CCSC)NC(=O)COc2ccccc2)C1 (configuration not stated)	3%	0.5	-3	0	-2.4
53	CCC(=O)Nc1ccc(S(=O)(=O)NC[C@H]2O[C@@H](n3cc(C)c(=O)[nH]c3=O)C[C@@H]2O)cc1	69%	-0.5	6	8	-0.6
54	CN1C(=O)N(CC(=O)Nc2ccc3c(c2)OCO3)C(=O)C12CCCCC2	2%	3.5	0	3	-7.0
55	CC1CC(C)CN(C(=O)c2cccc(S(=O)(=O)N3c4ccccc4CC3C)c2)C1 (configuration not stated)	2%	u	-12	-51	2.6
56	Cc1noc(NS(=O)(=O)c2ccc(NC(=O)c3cc(F)c(F)c(F)c3F)cc2)c1C	2%	-2.6	1	-4	-0.9
57	COC(=O)c1ccc(CSC2=NC[C@@H]3[C@@H]4C(=O)N(C)C(=O)[C@@H]4[C@](C)(C(=O)OC)N23)cc1	-2%	-4.5	-2	8	-3.4
58	O=C(CSc1ccc(Cl)cc1)Nc1ccccc1	-1%	-0.6	-2	-3	-10
59	Cc1ccccc1C(=O)Nc1ccc(S(=O)(=O)NCC2CCCO2)cc1 (configuration not stated)	-4%	-2.1	5	10	-1.9
60	O=C(NC1CCN(Cc2ccccc2)CC1)c1cc(S(=O)(=O)Nc2ccc(F)cc2)ccc1Cl	-7%	6.3	2	-4	3.5
61	CC1(CO)COC2(OC1)C(=O)Nc1ccccc12 (configuration not stated)	6%	-2.9	3	3	-2.1
62	Cn1nc(C(=O)OCC(=O)NCc2ccc(Cl)cc2Cl)c2ccccc2c1=O	2%	2.1	8	17	2.1
63	Cc1cccc(CN(Nc2ccccc2)c2ccccc2)n1	6%	8.0	-45	-58	-3.6
64	Cc1ccc(NC(C(=O)c2ccccc2)c2ccccc2)cc1 (configuration not stated)	3%	4.0	-53	-75	-11
65	Cc1c(NS(=O)(=O)c2cc(C(=O)NCCc3ccc(F)cc3)cc(Cl)c2Cl)c(=O)n(-c2ccccc2)n1C	5%	-0.9	8	11	-1.5
66	CCOC(=O)/C=C/C(=O)Nc1ccc(S(=O)(=O)Nc2cc(OC)nc(OC)n2)cc1	1%	-2.9	-1	5	1.6
67	Cc1cc(O)c(N=Nc2ccc(C(=O)O)cc2)cc1C	-2%	6.4	1	11	1.9
68	CCOc1ccc(NC(=O)Cn2nnc(-c3ccc(C(N)=O)cc3)n2)cc1S(=O)(=O)N1CCCC1	-6%	-6.2	-4	-4	-2.7
69	CCOc1ccc(C(=O)N2CCN(S(=O)(=O)c3ccc4c(c3)OCCO4)CC2)cc1OCC	7%	1.2	4	5	3.4
70	O=C(COC(=O)c1ccccc1O)NC(=O)NCc1ccccc1	5%	-5.8	0	8	0.3
71	Cc1cccc(CN2CCC(CNC(=O)Nc3ccccc3F)CC2)c1	5%	-0.4	15	3	0.3
72	O=C(c1ccccc1)C1CC1c1ccccc1 (configuration not stated)	-5%	-0.8	-4	1	-0.5
73	Cc1ccc(S(=O)(=O)N2CCOCC2)cc1NC(=O)c1ccncc1	-1%	3.4	15	17	1.1
74	COc1cccc(S(=O)(=O)N(C)C[C@H]2Oc3cc(Br)ccc3S(=O)(=O)N([C@@H](C)CO)C[C@H]2C)c1	9%	-1.7&1.2	-8&-7	-19&-7	-0.8&9.3
75	O=C(CCc1nnc(Cc2c[nH]c3ccccc23)o1)NCCC1CCCCO1 (configuration not stated)	3%	-0.1	6	10	0.1
76	Cc1nc2ccc(C(=O)OCC(=O)N(C)c3ccccc3)cc2nc1C	0%	-1.3	0	-2	-0.3
77	CN(C)S(=O)(=O)c1cccc(NC(=O)C2CCCN(C(=O)c3ccc(Cl)cc3)C2)c1 (configuration not stated)	-5%	-1.2	-11	-12	-0.3
78	CC(=NNC(=S)Nc1ccccc1Cl)c1ccccn1	14%	4.6	-12	-33	0.1

Exported with values ahead of the structure: entries from further up.
No.	Vif TR-FRET	AF4-AF9 inh	Ecoli rRNA inh	Ecoli rRNA inh OD600	Ecoli rRNA inh RFP	Compound
76	0%	-1.3	0	-2	-0.3	Cc1nc2ccc(C(=O)OCC(=O)N(C)c3ccccc3)cc2nc1C
72	-5%	-0.8	-4	1	-0.5	O=C(c1ccccc1)C1CC1c1ccccc1 (configuration not stated)

Source: PubChem BioAssay (several laboratories)
